High-throughput results deposited in PubChem by National Center for Advancing Translational Sciences (NCATS).
TRPV1 PAM: HTS Assay for Compounds that Act as Potentiators of the Vanilloid Receptor 1. 320,000 tested, 0.02% active. TRPV1-expressing cells, Fluo-8 calcium influx, capsaicin EC20 potentiation; host cell line not named in the record; control for the full effect not named in the record. Transient receptor potential cation channel subfamily V member 1 (Homo sapiens), Q8NER1. potentiation, % at 8.33 µM; active means potentiation above 80%; inconclusive means 30% to 80%; inactive means below 30%; further: 0% is about no effect
Target sequence (Q8NER1 whole entry, looked up): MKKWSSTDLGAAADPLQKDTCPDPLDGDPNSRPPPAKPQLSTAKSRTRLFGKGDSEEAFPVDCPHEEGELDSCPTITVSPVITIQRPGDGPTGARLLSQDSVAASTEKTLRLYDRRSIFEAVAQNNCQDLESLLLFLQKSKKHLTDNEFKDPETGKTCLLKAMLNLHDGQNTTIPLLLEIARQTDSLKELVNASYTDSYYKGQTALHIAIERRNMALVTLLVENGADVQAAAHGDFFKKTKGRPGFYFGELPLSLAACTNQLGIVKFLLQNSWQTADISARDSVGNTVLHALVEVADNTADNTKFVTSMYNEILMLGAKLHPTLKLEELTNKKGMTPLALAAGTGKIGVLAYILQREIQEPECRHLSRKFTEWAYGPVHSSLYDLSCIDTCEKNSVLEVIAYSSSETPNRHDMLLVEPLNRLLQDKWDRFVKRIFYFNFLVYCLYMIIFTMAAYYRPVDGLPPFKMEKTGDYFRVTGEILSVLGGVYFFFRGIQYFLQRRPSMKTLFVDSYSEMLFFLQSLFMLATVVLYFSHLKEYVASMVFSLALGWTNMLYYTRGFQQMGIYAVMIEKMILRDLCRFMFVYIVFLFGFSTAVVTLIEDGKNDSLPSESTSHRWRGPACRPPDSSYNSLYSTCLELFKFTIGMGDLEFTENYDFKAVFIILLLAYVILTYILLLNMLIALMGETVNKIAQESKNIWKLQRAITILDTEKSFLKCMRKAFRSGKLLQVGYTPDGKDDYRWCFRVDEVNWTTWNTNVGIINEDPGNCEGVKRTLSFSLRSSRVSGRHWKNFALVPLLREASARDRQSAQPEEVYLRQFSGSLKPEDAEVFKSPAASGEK
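Fluo-8 calcium influx in TRPV1-expressing cells, kinetic read (ex 480/em 520 nm). Compound added and read 3 min for agonist activity, followed by capsaicin at EC20 final and 2 min further read for enhancement.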
CtBP-E1A blk: qHTS Assay for Inhibitors of the CtBP/E1A Interaction; CtBP / adenovirus E1A interaction (AlphaScreen); AlphaScreen GST-E1A/His-CtBP binding, 1536-well; stronger effect = lower value; control for the full effect not named in the record; activity change, % (concentration not given with the values); 340,000 tested, 0.49% active; in the data active means activity change below about -65%; inconclusive means about -30% to -65%; inactive means above about -30%; further: on the % scale 0 is the no-effect control and ±100 the full control effect
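Homogeneous bead-based format: GST-tagged E1A captured on glutathione donor beads, His-tagged CtBP on nickel acceptor beads; compounds precede bead addition by 2 h at 37 °C.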
Sfp inh: qHTS Assay for Inhibitors of Bacillus subtilis Sfp phosphopantetheinyl transferase (PPTase). Potency, µM, inactives show max response, negative = inhibition, actives largely listed as inhibitors. 4'-phosphopantetheinyl transferase ffp (Bacillus subtilis), Q9F4F7. Biochemical Sfp PPTase activity, qHTS. 310,000 tested, 3.5% active; active means well fitted inhibition curve with a large enough effect; inconclusive means small, poorly fitted or top-dose-only effect, or another doubt; inactive means no such curve, though single readings can be large or run the other way;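 further: the enzyme is Sfp with the accession as filed and its product quenches rhodamine fluorescence; potency means the concentration at half of the fitted maximal effect; 0% = enzyme reaction without inhibitor and -100% = no enzyme wells; top concentration of the series not given in the record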
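Compounds were incubated with enzyme (final 15 nM) for 15 min at room temperature before substrate addition started the reaction. Fluorescence at 525 nm excitation, 598 nm emission was recorded immediately and after 30 minutes.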
gsp antagonist: qHTS for Antagonists of gsp, the Etiologic Mutation Responsible for Fibrous Dysplasia/McCune-Albright Syndrome: qHTS | gsp-mutant cells, cAMP HTRF, 30 min; control for the full effect not named in the record | Potency, µM (highest dose often 76.9 µM), inactives show top-dose activity change, negative = inhibition, most hits filed as inhibitors | 340,000 tested, 0.4% active; active = falling curve of any shape with a large fitted effect; inconclusive = falling curve, mostly with a smaller effect; inactive = flat or rising curve; cell line not stated here;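 further: intracellular cAMP measured with PDE inhibitor Ro 20-1724 present during compound exposure; potency means the concentration at half of the fitted maximal effect; on the % scale 0 is the no-effect control and ±100 the full control effect; nearly all actives have a fitted effect of over 65% in size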
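HTRF cAMP read-out (cAMP-d2 plus anti-cAMP antibody-K in lysis buffer, 30 min RT). Before lysis, cells are exposed to compounds with […] for 30 min at 37C in DPBS containing Ca/Mg, BSA and Tween 20.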
Menin-MLL FL inh: qHTS Assay for Inhibitors Targeting the Menin-MLL Interaction in MLL Related Leukemias: Competition With Fluorescein Labeled MLL-derived Peptide. 290,000 tested, under 10 active. FP activity change, % at 61.4 µM. Fluorescence polarization, fluorescein-MLL peptide displacement from menin; inconclusive = falling polarisation curve, or a change in total fluorescence; inactive = total fluorescence flat and polarisation flat or rising; no compound was filed as active; the % refers to the polarisation; negative = inhibition;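 further: % of control where 0% means no effect; inhibitors lower the polarisation; unlabelled MLL peptide was the positive control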
gsp ag: qHTS for Agonist of gsp, the Etiologic Mutation Responsible for Fibrous Dysplasia/McCune-Albright Syndrome: qHTS. gsp mutant cells, cAMP HTRF, 30 min; control for the full effect not named in the record. 340,000 tested, 0.13% active. Potency, µM (series often up to 76.9 µM), inactives show at the top dose activation (cAMP increase), usual class: activators; active = well fitted activation curve with a large enough effect; inconclusive = small, poorly fitted or top-dose-only effect, or another doubt; inactive = no such curve, though single readings can be large or run the other way; cell line not stated here;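 further: phosphodiesterase inhibitor Ro 20-1724 added with compounds to block cAMP breakdown; potency means the concentration at half of the fitted maximal effect; nearly all actives have a fitted effect of over 60% in size; about a fifth of the inactives were tested at one dose only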
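Cells stably selected in G418 were plated at 2000/well, grown 16-24 hr, then given compounds in DMSO with the PDE inhibitor […] (300 uM solution added) for 30 min at 37C; cAMP was read by HTRF.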
ClpP mod: qHTS Assay for Activators of ClpP; ATP-dependent Clp protease proteolytic subunit (Bacillus subtilis (strain 168)), P80244; purified B. subtilis ClpP, FRET peptide cleavage, 20 min; Potency, µM (highest dose often 57.5 µM), inactives show at the top dose activity change, negative = active; 340,000 tested, 1.9% active; active = well fitted falling curve with a large enough effect; inconclusive = small, poorly fitted or top-dose-only effect; inactive = no such curve, though single readings can be large or run the other way; further: potency means the concentration at half of the fitted maximal effect; the source files actives as falling curves though it sought activators and does not explain the sign; nearly all actives have a fitted effect of over 65% in size; many hits overshoot -100%
Target sequence (P80244 whole entry, looked up): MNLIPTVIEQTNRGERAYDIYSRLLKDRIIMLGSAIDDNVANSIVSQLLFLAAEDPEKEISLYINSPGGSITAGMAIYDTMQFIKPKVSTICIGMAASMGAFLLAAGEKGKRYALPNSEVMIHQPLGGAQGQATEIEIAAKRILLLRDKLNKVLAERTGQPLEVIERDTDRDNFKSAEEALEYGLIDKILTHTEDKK
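Purified B. subtilis ClpP, 10 microg/mL final in Tris/HCl pH8 with KCl, BSA, glycerol and Tween-20, cleaved an Abz/nitrotyrosine-quenched decapeptide. Fluorescence (ex 320, em 430) was read at 0 and 20 min at room temperature. Delta was normalized to 5.8 microM ADEP and DMSO/no-enzyme controls.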
The depositor's hits bear a star; ? = inconclusive; · = not tested or not shown; & = joins results of further samples; [ ] = remark or other dose. The order is random. Share with any hit: about 5.3%.

molecule,TRPV1 PAM,CtBP-E1A blk,Sfp inh,gsp antagonist,Menin-MLL FL inh,gsp ag,ClpP mod
Cc1nnc(SCc2cc(=O)oc3ccc4ccccc4c23)n1Cc1ccccc1,1.2,-8.9,-2.7%,-15.8%,6.2,-31.5%[inhibitor],-23.7%
O=c1[nH]c(-c2ccccc2)cs1,2.1,-1.9,10.4%,9.6%,1.4,-42.2%[inhibitor],-4.8%
CCOCCCNCc1cn(-c2ccc(F)cc2F)nc1-c1ccccc1C,-8.7,11.0,14.4%,9.2%,1.1,-2.9%[15.4 µM],-1.1%
CCOc1ccccc1N(CC(=O)N1CCC(C(N)=O)CC1)S(=O)(=O)c1ccc(SC)cc1,-2.7,-3.6,2.9%,0.7%,·,-5.4%[15.4 µM],10.0%
Cc1nc(SCc2c(F)cccc2Cl)c2c(=O)n(C)c(=O)n(C)c2n1,?,6.7,12.8%,-4.0%,1.0,5.1%,-0.9%
Cc1ccc(-c2cc(C(=O)N3CCCC(C(F)(F)F)C3)c3ccccc3n2)o1 (stereo not drawn),-19.7,5.7,·,-12.9%,·,12.3%,15.8µM*
CN1CCN(CC(=O)Nc2c(C(=O)C3CC3)oc3ccccc23)CC1,4.0,-1.3,7.6%,6.6%,-2.6,0.0%,-14.1%
CCN(CC)CCCNC(=O)c1oc2ccc(S(=O)(=O)N3CC(C)CC(C)C3)cc2c1C (stereo not drawn),1.7,-2.9,-3.4%,0.8%,-0.6,-25.1%,·
COc1ccc(C(=O)COC(=O)c2ccc(NC(=O)c3ccccc3)cc2)cc1,-0.4,7.3,26.7%,8.5%,-0.5,-46.3%[inhibitor],?
COC(=O)c1ccc(CSc2nc3scc(-c4cccs4)c3c(=O)[nH]2)o1,?,-1.6,56.2µM*,-29.4%,5.8,-8.5%,-0.9%
Clc1ccccc1-c1nnc2n1CCCCC2,-3.9,-6.4,8.0%,7.6%,-1.6,4.7%[15.4 µM],?
COc1ccc(CC(=O)N/N=C(/C)c2ccco2)cc1,-10.1,5.1,8.6%,1.2%,4.3,22.5%,·
Cc1ccc(C(=O)Nc2nnn(C)n2)cc1,-2.4,7.1,2.5%,-1.2%,3.8,1.1%[15.4 µM],0.5%
O=C(/C(=C/O)N=Nc1cccc(C(F)(F)F)c1)c1ccccc1,6.2,2.0,-3.3%,-23.7%,0.5,-0.2%[15.4 µM],·
COc1ccccc1NS(=O)(=O)c1ccc(C(N)=O)cc1,7.0,·,0.4%,-10.2%,0.4,15.4%[15.4 µM],·
Cc1ccc(S(=O)(=O)/N=C2\C=C(Nc3ccc(O)cc3)C(=O)c3ccccc32)cc1,·,-69.2*,·,-17.5%,·,-2.8%[15.4 µM],0.7%
O=c1c2c(nc3c(-c4ccc(Cl)cc4)c[nH]n13)CCC2,3.1,·,?,-18.6%,-0.4,-10.7%[15.4 µM],·
COc1ccc(NC(=O)C(=O)c2cn(CC(=O)N3CCCC3)c3ccccc23)cc1OC,-3.8,-11.1,7.2%,0.7%,·,16.5%,-1.6%
O=C(COC(=O)c1ccc(-c2cnc3ccccc3n2)cc1)c1ccccc1,-9.2,5.0,-1.5%,9.4%,0.9,12.1%[15.4 µM],-4.2%
Nc1cnnc(N/N=C\c2ccccc2)c1Cl,·,0.3,·,5.5%,·,3.1%,·
CCOCCCNC(=S)NNC(=O)CCn1nc(C)c(Br)c1C,-2.9,45.1,22.0%,12.0%,1.0,4.3%,5.4%
CC(=O)N1CCN(C(=O)CC2OC(=O)c3ccccc32)CC1 (stereo not drawn),4.0,-0.7,-23.0%,-0.3%,?,-31.2%[inhibitor],-3.4%
Cc1cccc(NS(=O)(=O)c2ccccc2)n1,17.1,4.3,8.6%,2.5%,1.1,-3.1%,20µM*
Cc1ccccc1NC(=O)c1ccc(NC(=O)C2CC(=O)OC23CCCCC3)cc1 (stereo not drawn),21.0,?,6.9%,-17.3%,-6.6,-14.0%[15.4 µM],·

(further entries)
structure,TRPV1 PAM,CtBP-E1A blk,Sfp inh,gsp antagonist,Menin-MLL FL inh,gsp ag,ClpP mod
CC1(C)Cc2nc3sc4c(=O)n(CC(=O)NCc5ccccc5)cnc4c3cc2CO1,·,1.9,-4.5%,4.5%,4.0,?,?
CCNC(=O)NC(=O)C(C)Sc1nc2ccccc2n1CC(C)C (stereo not drawn),-4.0,0.4,8.7%,-9.8%,1.6,-0.9%,-1.2%
COc1cc(/C=C/C(=O)OCC(=O)NCc2ccco2)cc(OC)c1OC,3.9,-9.0,9.1%,-3.3%,3.8,-29.4%,·
Cc1cc(C)c2c(CC(=O)N3CCCC3)coc2c1,24.0,·,10.2%,5.0%,4.4,-43.2%[inhibitor],1.0%
Cc1ccc(NC(=O)c2ccc(=O)n(CC(=O)Nc3c(C)cc(C)cc3C)n2)cc1,-1.2,-12.6,-6.2%,12.1%,·,37.7%,2.0%&1.9%
C=C(C)COc1ccc(-c2nc(N)ncc2-c2ccccc2OC)c(O)c1,4.8,-10.1,5.1%,?,-1.9,17.5%,·
C/C(=N\OCC(=O)N/N=C/c1ccccc1O)c1cccs1,7.4,-67.0*,10.9%,-26.0%,2.5,-0.8%,-14.3%
COc1ccc(C(C(=O)NC2CCCC2)N(C(=O)c2snc(C(N)=O)c2N)c2cc(C)ccc2OC)cc1OC (stereo not drawn),-16.7,4.6,11.3%,-9.2%,?,6.4%,·
CCCc1nnc(SCC(=O)N2CCCCC2C)n1CCCOC (stereo not drawn),-8.5,4.1,12.5%,0.4%,1.8,2.2%,0.3%
CCOC(=O)c1sc2nc(NC(=O)C3CCCCC3)sc2c1C,·,5.6,2.7%,1.4%,3.0,?,5.2%
O=C(c1ccccc1)N1CCN(CC(O)Cn2ccc3ccccc32)CC1 (stereo not drawn),-7.1,-23.9,-24.8%,14.6%,-2.1,10.0%[15.4 µM],·
COc1cc(C)c(CN2CCN(S(=O)(=O)c3ccc(Cl)s3)CC2)cc1OC,-7.3,-21.9,·,-8.4%,·,-36.1%[inhibitor],1.3%
c1ccc(Sc2ncnc3c2oc2ccccc23)nc1,-3.7,6.2,10.9%,6.8%,?,5.8%,-3.5%
O=[N+]([O-])c1nn(-c2ccc3c(c2)OCCO3)n(O)c1=NC1CCN(Cc2ccccc2)CC1,-4.7,·,16.3%,-20.9%,-0.8,1.2%,1.4%
CCOC(=O)C1CCCN(c2c(Nc3cccc(C)c3)c(=O)c2=O)C1 (stereo not drawn),·,0.6,-0.4%,-15.3%,-0.1,-29.7%,-0.2%
O=C(CSc1nccc(=O)[nH]1)Nc1ccc(N2CCOCC2)c(Cl)c1,-3.5,-7.0,-5.8%,5.7%,1.1,-8.9%[15.4 µM],·
CC1=C(C(=O)OCC(C)C)C(c2cccc(F)c2)N2C(=O)C(C)SC2=N1 (stereo not drawn),19.8,-2.5,33.8%[activator],?,0.4,-57.2%[inhibitor],1.3%
CCOc1ccccc1NC(=O)C(C)SCc1ccccc1 (stereo not drawn),-9.9,14.6,1.6%,-6.2%,-3.3,2.3%,·
Cc1ccc(-c2cc(C(=O)NC3CCCCC3)no2)cc1,-4.5,2.1,16.3%,1.6%,4.5,15.0%,·
CC1CCN(CCCCOc2ccc([N+](=O)[O-])cc2)CC1,7.1,6.2,-10.3%,17.6%,3.9,-2.0%[15.4 µM],0.6%
CCOc1ccc(-c2ccc(SCC(=O)N3CCN(c4ccccc4)CC3)nn2)cc1,17.0,·,-1.6%,·,2.7,·,·
O=C(O)CC(C(=O)Nc1ccc(Cl)cc1Cl)C1CCCO1 (stereo not drawn),0.3,3.9,16.4%,19.9%,-0.7,?,3.0%
CCC1CCCCN1C(=O)c1cc2cc(Br)ccc2oc1=O (stereo not drawn),·,1.3,24.4%,0.0%,0.6,-18.6%,-1.9%
Cn1ncc2c(NNC(=O)C3CCCCC3)ncnc21,5.0,0.6,4.9%,6.4%,1.0,13.2%[15.4 µM],·
CC1CN(C(=O)c2cccc(COc3ccccc3Cl)c2)CC(C)O1 (stereo not drawn),-26.7,0.0,14.6%,-5.3%,4.4,?,·

Record cards (already shown).
CCC1CCCCN1C(=O)c1cc2cc(Br)ccc2oc1=O (stereo not drawn) as listed: TRPV1 PAM = ·; CtBP-E1A blk = 1.3; Sfp inh = 24.4%; gsp antagonist = 0.0%; Menin-MLL FL inh = 0.6; gsp ag = -18.6%; ClpP mod = -1.9%
Cn1ncc2c(NNC(=O)C3CCCCC3)ncnc21 as listed: TRPV1 PAM = 5.0; CtBP-E1A blk = 0.6; Sfp inh = 4.9%; gsp antagonist = 6.4%; Menin-MLL FL inh = 1.0; gsp ag = 13.2%[15.4 µM]; ClpP mod = ·
